Compound activity deposited in PubChem BioAssay by several laboratories.
WNV NS2B-NS3 inh: inhibitors of West Nile virus NS2B-NS3 protease; WNV NS2B-NS3 protease, fluorogenic substrate Ex360/Em465; active compounds read low; AID 577; 65,000 compounds, 0.18% hits; P06935; z-score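 (tested at a level between 10 and 100 µM)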;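 active = z-score at -3 or under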;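 also: score is relative to mean and spread of the compound wells of a plate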
Target sequence (P06935 1371-1501 limits assumed): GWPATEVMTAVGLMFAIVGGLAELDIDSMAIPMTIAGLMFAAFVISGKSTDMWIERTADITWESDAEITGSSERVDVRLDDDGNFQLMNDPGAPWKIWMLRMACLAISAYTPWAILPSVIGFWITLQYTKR
Target sequence (P06935 1502-1679 limits assumed): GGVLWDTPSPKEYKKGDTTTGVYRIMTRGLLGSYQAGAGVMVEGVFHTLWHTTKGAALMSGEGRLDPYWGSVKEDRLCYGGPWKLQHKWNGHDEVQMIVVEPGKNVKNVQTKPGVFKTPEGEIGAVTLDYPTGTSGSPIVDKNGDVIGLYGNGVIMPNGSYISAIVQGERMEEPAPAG
Hsc70 ATP site: Hsc70 inhibitors, probe displacement, primary screen, biochemical, fluorescence polarization (AID 568); Hsc70 fluorescence polarization, probe displacement; higher % means a stronger effect; strong numbers were not always called active; displacement, % at 20 µM; hits with a dose series show IC50 in µM; 83,000 tested, under 10 active;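 active = displacement above 50% without optical interference and an IC50 on retest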;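 also: ATPase domain with a fluorescein-tagged ATP probe; 0% = vehicle and 100% = excess ADP; read after one hour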
MT1-MMP promoter: MT1-MMP gene expression reporter suppression – cell-based, luciferase reporter, luminescence (AID 618); MT1-MMP promoter luciferase reporter cells, luminescence; calls from a first round at 10 µM; hits with a dose series show EC50 in µM; 87,000 compounds, 0.62% hits;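 active = over half of the reporter light lost at 10 µM or EC50 under 50 µM; inactive = the rest and hits that failed the dose series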;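 also: actives suppress MT1-MMP promoter-driven transcription so potencies describe inhibitors; HT1080 fibrosarcoma cells; overnight exposure; toxic or luciferase-blocking compounds were not removed from the actives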
* = called active by the depositor; i = inactive; . = no result given; + = active, no number. A portion of the library; rates above refer to the full screens.

Value order – WNV NS2B-NS3 inh, Hsc70 ATP site, MT1-MMP promoter
> Cc1nc(N2CCCC2)c2nnn(Cc3ccccc3Cl)c2n1
  0.45, -3.1%, i
> O=C(c1ccc(Cl)s1)N1CCOCC1
  -0.07, -0.7%, i
> CCOC(=O)c1ccc(NC(=O)C(CC)(CC)C(=O)OCC)cc1
  0.05, -1.6%, i
> Cc1cc(C)n(CC(O)COCc2ccccc2)n1 (stereo not given)
  0.1, 2.8%, i
> Cn1c(NCCCO)nc2ccccc21
  ., -2.7%, i
> c1ccc(N2CCN(c3ncnc4sc5c(c34)CCC5)CC2)cc1
  0.56, 0.1%, i
> O=C(Oc1ccc(N(Cc2cccs2)C2=NS(=O)(=O)c3ccccc32)cc1)c1ccccc1F
  ., 2.2%, i
> Cc1csc(SCCn2c(N3CCN(c4ccccc4)CC3)nc3c2c(=O)[nH]c(=O)n3C)n1
  0.27, -0.7%, i
> O=S(=O)(NCC(c1cccnc1)N1CCN(c2ccccc2)CC1)c1cc(F)ccc1F (stereo not given)
  0.41, 3.6%, i
> CCOC(=O)C1=C(C)Nc2ncnn2C1/C=C/c1ccccc1 (stereo not given)
  -1.4, 2.9%, i
> O=C(CSc1nnc(-c2ccc(Cl)cc2)n1Cc1ccco1)NCc1ccc2c(c1)OCO2
  ., -0.3%, i
> CCOC(=O)c1ccc(NC(=O)CC2SC(=NC)N(C)C2=O)cc1 (stereo not given)
  -0.36, 0.8%, i
> CCOC(=O)C1CCN(c2c(NCc3ccc(C(=O)NCCOC)cc3)c(=O)c2=O)CC1
  -0.7, 0.5%, i
> CC1CCCN(C(=O)CN2CCN(C(=O)c3ccco3)CC2)C1 (stereo not given)
  -0.01, -4.5%, i
> CC(=O)Nc1cc(OC(C)=O)c2nonc2c1OC(C)=O
  -0.31, 6.7%, i
> COC(=O)c1cc(OC)c(OC)cc1NC(=O)Nc1ccc(OC)cc1
  ., 6.4%, i
> CCC(=O)N1c2ccccc2NC2=C(C(=O)CC(c3ccco3)C2)C1c1ccco1 (stereo not given)
  -0.21, 7.1%, i
> Cc1cc(C(=O)CSc2nnc(-c3ccccc3)n2Cc2ccc3c(c2)OCO3)c(C)n1C
  -0.0058, -0.8%, i
> N#CC1=C(N)N(c2ccccc2Sc2ccccc2)C(=O)C1
  -0.59, 3.7%, i
> COc1ccc(-n2nc(C(=O)NCC(=O)N3CCN(c4ccccn4)CC3)c3ccccc3c2=O)cc1
  -1.1, -1.0%, i
> Cc1nc(SCC(N)=O)[nH]c(=O)c1Cc1ccc(OC(C)C)cc1
  -0.12, -4.7%, i
> CCOc1nc(-c2ccc(C)cc2)ccc1-c1noc(-c2cccnc2)n1
  -0.14, -0.7%, i
> CC(=O)Nc1cccc(NC(=O)c2sc3ncn(CC(=O)N4CCCCC4)c(=O)c3c2C)c1
  -0.19, -3.3%, i
> O=C(Nc1ccc2oc(-c3cccnc3)nc2c1)c1cc2ccccc2o1
  2.4, -13%, i
> CCc1ccc(C(=O)c2cncc(Br)c2)cc1
  ., -0.5%, i
> Cc1ccc(S(=O)(=O)Cc2cn3cccnc3n2)cc1
  -0.0081, -9.4%, i
> COc1cc2c(c(OC)c1)C(c1cccc(OC)c1OC)CC(=O)N2 (stereo not given)
  1.4, 3.0%, i
> CCC(C)(C)n1nnnc1C(c1cc2cc(C)cc(C)c2[nH]c1=O)N1CCCC1 (stereo not given)
  -1.4, -17%, i
> O=C1/C(=C\Nc2ccccc2)CCN1c1ncccn1
  ., -4.1%, i
> CC1CCN(CCC(=O)N2CCCc3c2c(=O)oc2ccc(O)cc32)CC1
  -1, 9.8%, i
> c1ccc(-c2ccc(-n3ccnc3)cc2)cc1
  -0.3, -6.2%, i
> O=C1NC(c2ccc3c(c2)OCO3)Oc2ccccc21 (stereo not given)
  -0.63, -0.3%, i
> COC(=O)c1c(N)c(C#N)c(C)n1-c1ccccc1
  -0.94, 3.0%, i
> COC(=O)C1=C(C)N(c2cc(Cl)cc(Cl)c2)C(=O)C1
  -0.29, -4.8%, i
> O=C(NCCCn1ccnc1)c1csc2ccccc12
  -0.56, -1.6%, i
> O=C(c1nn2c(C(F)(F)F)cc(-c3ccco3)nc2c1Br)N1CCCc2ccccc21
  0.13, 6.8%, i
> COCCCNC(=O)c1cc2c(=O)n(C)c3ccccc3c2n1C
  0.96, 2.9%, i
> COc1ccc(CC(=O)N2CC(C)CC(C)C2)cc1OC (stereo not given)
  ., 1.3%, i
> Cc1ccc(-n2nc3c(c2NC(=O)c2c(-c4ccccc4Cl)noc2C)CS(=O)(=O)C3)c(C)c1
  0.38, 3.7%, i
> CCCC(=O)Nc1ccc(NC(=O)CCc2ccccc2)cn1
  -0.06, 2.0%, i

Seven records drawn at random from the list so far, as already listed:
Value order – WNV NS2B-NS3 inh, Hsc70 ATP site, MT1-MMP promoter
> O=C1NC(c2ccc3c(c2)OCO3)Oc2ccccc21 (stereo not given)
  -0.63, -0.3%, i
> CCCC(=O)Nc1ccc(NC(=O)CCc2ccccc2)cn1
  -0.06, 2.0%, i
> COc1ccc(CC(=O)N2CC(C)CC(C)C2)cc1OC (stereo not given)
  ., 1.3%, i
> COCCCNC(=O)c1cc2c(=O)n(C)c3ccccc3c2n1C
  0.96, 2.9%, i
> O=C(c1nn2c(C(F)(F)F)cc(-c3ccco3)nc2c1Br)N1CCCc2ccccc21
  0.13, 6.8%, i
> c1ccc(-c2ccc(-n3ccnc3)cc2)cc1
  -0.3, -6.2%, i
> COC(=O)c1c(N)c(C#N)c(C)n1-c1ccccc1
  -0.94, 3.0%, i

Continued:
Value order – WNV NS2B-NS3 inh, Hsc70 ATP site, MT1-MMP promoter
> Nc1ccc(C(=O)OCCCc2nc3ccccc3[nH]2)cc1
  1.3, 0.1%, i
> COc1ccc(C2CC(=O)NC3=C2C(=O)CCC3)cc1Cl (stereo not given)
  1.8, 1.6%, i
> C=CCSC1=N/C(=C\C=C\c2ccco2)C(=O)S1
  0.1, -24%, i
> CCOC(=O)N1CCN(c2ccc(Cl)c(Cl)c2)CC1
  -0.79, -2.8%, i
> CC1(C)NC(=O)N(CC(O)COc2ccc(-c3ccc(C#N)cc3)cc2)C1=O (stereo not given)
  1.1, -7.9%, i
> Cc1ccccc1S(=O)(=O)Nc1nc2ccccc2nc1NCCO
  ., 2.6%, i
> CCCCCCn1c(NCC)nc2c1c(=O)[nH]c(=O)n2C
  0.53, 17%, i
> Cc1ccc(C2N(c3ccc(Cl)c(Cl)c3)C(=O)C3CCCN32)o1 (stereo not given)
  -0.53, -5.2%, i
> O=C(NCCc1ccccc1)c1cnc2sccn2c1=O
  1.9, 6.1%, i
> CC(C)C(=O)Nc1ccc(NC(=O)c2cccnc2)cn1
  ., 1.8%, i
> CC1Cc2ccccc2N1C(=O)c1cc2sccc2n1Cc1ccc(F)cc1 (stereo not given)
  ., 1.3%, i
> Cc1cc(Cl)c(S(=O)(=O)N2CCSCC2)cc1OCC(N)=O
  0.61, 0.6%, i
> CCOCCn1c(SC)nc2c1c(=O)[nH]c(=O)n2C
  -0.33, 2.2%, i
> CC(=O)N1CCCc2cc(S(=O)(=O)NC(C(=O)NC3CCCCC3)C(C)C)ccc21 (stereo not given)
  ., 4.3%, i
> CCCS(=O)(=O)N1CCN(C(=O)COc2ccc(OC)cc2)CC1
  ., -2.1%, i
> CN(CC(=O)N1CCN(C2CCCCC2)CC1)S(=O)(=O)c1cccc2nsnc12
  -0.37, 4.7%, i
> Cc1cccc(NC(=O)c2sc3nc(-c4ccccc4)cn3c2C)n1
  0.13, -24%, i
> Cn1nc(-c2ccc(N3CCOCC3)c(NC(=O)COc3ccccc3)c2)c2ccccc2c1=O
  -0.05, 0.1%, i
> Cc1cc(=O)oc(C)c1C(=O)OCC(=O)c1ccc(Cl)c(Cl)c1
  ., 5.4%, i
> CC(C)c1ccc(OC(=O)NCCO)cc1
  0.7, -0.7%, i
> C=CCn1c(SCC(=O)Nc2sccc2C(N)=O)nc2sc(C)c(C)c2c1=O
  -0.15, -1.6%, i
> Cc1cc(CCN2CCC(=O)NC2=S)ccc1OC(C)C
  ., -12%, i
> COc1cccc(C2NC(CCSC)(C(=O)O)C3C(=O)N(C(C)C)C(=O)C23)c1O (stereo not given)
  0.63, 0.7%, i
> O=c1c2c(-c3ccccc3)csc2nc2n1CCC2
  0.64, 0.7%, i
> Cc1cnc(C(=O)OCC(=O)NC(=O)NC(C)C)cn1
  -0.44, -2.7%, i
> CCCCn1c(CN2CCN(C(=O)OCC)CC2)nc2c1c(=O)n(C)c(=O)n2C
  -0.97, -0.7%, i
> COc1ccc(Cl)cc1-c1nc(-c2ccc(Br)o2)no1
  1, 0.2%, i
> O=C(c1cccc(F)c1)N1CCN(C(=O)C2CC2)CC1
  0.75, 1.6%, i
> COc1ccccc1C(=O)Nc1cc2cc(Br)ccc2oc1=O
  ., -38%, i
> CC1=C(C)SC(=C(C#N)c2nnc(N3CCOCC3)n2-c2ccccc2)S1
  -0.38, 6.1%, i
> CCCC1=C(C(=O)OCC)C(c2cc(Cl)cc(OC)c2OCc2ccccc2)NC(=O)N1 (stereo not given)
  ., -3.1%, i
> O=C(c1ccco1)N1CCN(C(=O)c2oc(=O)c3ccccc3c2-c2ccccc2)CC1
  0.14, 3.5%, i
> O=C(Nc1nc2c(s1)C(=O)CCC2)c1ccccc1
  0.31, 0.4%, i
> CCN1CCN(CCCNC(=O)Cn2cc3c(n2)CCCC3)CC1
  -0.61, 0.1%, i
> O=CNC1CCCc2c1[nH]c1ccc(Cl)cc21 (stereo not given)
  -1, 3.2%, i
> COCCOC(=O)C1=C(C)NC2=C(C(=O)CCC2)C1c1ccc2c(c1)OCO2 (stereo not given)
  1.5, -5.4%, i
> CCN1CCN(C(c2cccs2)C(C)NS(=O)(=O)c2ccc(Br)cc2)CC1 (stereo not given)
  1.5, -2.7%, i
> CCOc1cccc(C(=O)Nc2cccnc2)c1
  0.3, 4.4%, i
> COc1ccc(/C=N/n2cnnc2SCc2ccc(OC)cc2)cc1
  -0.1, 3.5%, i
> Cc1cc(NC(=O)CCC(=O)N(CCC(C)C)C(C(=O)NC2CCCC2)c2cccnc2)no1 (stereo not given)
  -1.3, 2.1%, i
> COc1ccc(NS(=O)(=O)c2cc(OC)ccc2NC(=O)c2cc(C)oc2C)cc1
  0.26, -8.9%, +
> CCn1cc(Br)c(C(=O)Nc2cccc(Cl)c2)n1
  1.2, -1.5%, i
> COc1ccc2[nH]c(O)c(NC(C)=O)c2c1
  1.4, 3.1%, i
> CCOC(=O)N1CCN(C(=O)Cn2c(=O)sc3ccccc32)CC1
  -0.38, -0.6%, i
> COCCOC(=O)c1c(C)oc2ccc(NS(=O)(=O)c3ccc(C(=O)O)cc3)cc12
  -0.3, 0.3%, i
> CCC1(CC)C(=O)NC(=O)NC1=NCCc1ccc(O)cc1
  0.16, 4.6%, i
> CCOC(=O)/C(C#N)=C1/SC(CCO)C(=O)N1c1ccccc1 (stereo not given)
  -0.79, -8.4%, i
> COc1cc(NC(=O)C2CCCCN2)ccc1OCC(C)C (stereo not given)
  -0.61, -0.9%, i
> Cc1ccc(-c2nnn(CC(=O)N3CCN(c4ccccc4)CC3)n2)o1
  1.4, 1.2%, i
> O=C(CSc1nnnn1-c1ccccc1)NC(=O)Nc1ccc2c(c1)OCCO2
  0.95, -4.4%, i

Carrying on:
Value order – WNV NS2B-NS3 inh, Hsc70 ATP site, MT1-MMP promoter
> O=C(Nc1ccc(O)cc1)c1ccc(C(=O)c2ccccc2)o1
  -0.29, -0.9%, i
> CC1(C)Cc2c(sc3c2c(=N)n(Cc2ccco2)c(=O)n3Cc2ccc(Cl)cc2)CO1
  -1.3, -7.8%, i
> CCOc1ccc(NC(=NCc2ccc3c(c2)OCO3)SC2CC(=O)N(c3ccc(OCC)cc3)C2=O)cc1 (stereo not given)
  ., 2.0%, i
> Cc1ccc(S(=O)(=O)CC(=O)N2CCCC2)cc1
  -1.6, -8.2%, i
> CCN(CC)S(=O)(=O)c1cccc(-c2nnc(SCC(N)=O)n2CCc2ccccc2)c1
  -0.44, 1.4%, i
> O=C(c1ccccc1)N1CCN(C(=O)c2ccccc2Br)CC1
  -0.25, 5.0%, i
> Cc1ccc(S(=O)(=O)N=Nc2c(O)[nH]c3ccccc23)cc1
  ., 5.1%, i
> O=C(Nc1ccc(Cl)cn1)c1ccccc1F
  ., 1.4%, i
> CCCc1cc(NCCN2CCOCC2)n2c(nc3ccccc32)c1C#N
  0.48, 0.0%, i
> CC(=O)Nc1c(C(=O)N2CCN(c3ncccn3)CC2)cnn1-c1ccccc1Cl
  -1.7, 0.7%, i
> CC1CN(C(=O)CSc2nnc(-c3ccncc3)n2-c2ccccc2)CC(C)O1 (stereo not given)
  0.89, -1.8%, i
> O=C(Nc1ccc(CN2CCOCC2)cc1)c1cccc(F)c1
  0.08, 2.8%, i
> Cc1ccc(-c2cc(-c3cccs3)[nH]n2)c(O)c1
  ., -1.1%, i
> COc1cc2c(cc1OC)C(C(=O)NCCN1CCOCC1)C1c3ccccc3CCN1C2=O (stereo not given)
  0.2, -3.7%, i
> COc1ccc(S(=O)(=O)N(C)CC(=O)NC2CCCCC2)cc1Cl
  ., 5.0%, i
> CC12CN3CC(C)(CN(C1)C3c1ccc(Cl)cc1Cl)C2O (stereo not given)
  -0.41, 0.9%, i
